# DUX4 inh: inhibitors of DUX4-driven ZSCAN4 reporter expression, primary screen, 293T cells, Gaussia and Italica luciferase | 293T-iDUX4 ZSCAN4-Gaussia luciferase reporter, 24 h; stronger effect = lower value | activity change, negative = inhibition, % (concentration not given with the values) | 37,000 compounds, 0.8% hits | AID 1224904, 2016;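 active = -10% or lower and over 25 points stronger than a control reporter; inconclusive = -10% or lower with a smaller gap; inactive = above -10%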;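 note: 0% = median of neutral control wells and -100% = median of positive control wells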
# DUX4 inh difference: recorded beside DUX4 inh, whose call it bears; Gaussia minus Italica difference, %; measured here: selective DUX4 reporter inhibition;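 worked out from the two reporters; negative = selective loss of the DUX4 reporter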
# DUX4 inh control: also measured in DUX4 inh; calls as there; activity change, negative = inhibition, %; measured here: Italica tet-on control reporter;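 0 = neutral control and -100 = positive control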
# Numbers without * were called inactive; ? = inconclusive; . = no result given. Not all compounds are listed. The share of hits here may be higher or lower than overall.
SMILES,DUX4 inh,DUX4 inh difference,DUX4 inh control
Cc1cc(C(=O)Nc2ccc3c(c2)C(=O)N(C)[C@@H]2CC[C@@H](CC(=O)N[C@@H](C)c4ccccc4)O[C@H]2CO3)no1,-8,14,-21
CNC[C@@H]1Oc2c(NC(=O)Nc3c(C)noc3C)cccc2C(=O)N([C@H](C)CO)C[C@H]1C,3,-2,4.8
CNC[C@H]1OCc2cn(nn2)CCCC(=O)N([C@@H](C)CO)C[C@@H]1C,5,2,2.7
CO[C@H](CN(C)S(=O)(=O)c1ccc(C)cc1)[C@@H](C)CN([C@@H](C)CO)S(=O)(=O)c1cccc(Cl)c1,-2,-2,-0.1
O=C(C1CCOCC1)N1CC(=O)N2[C@@H](CO)[C@@H](c3ccc(C#CC4CCCCC4)cc3)[C@@H]2C1,-1,3,-4.7
C[C@@H]1CC=CC[C@H](c2cccc(Cl)c2)NC(=O)[C@@H](Cc2ccccc2)N(C)C(=O)c2ccccc2O1 (mixture of isomers),6,5,1.0
C[C@@H]1CN([C@@H](C)CO)C(=O)Cc2cc(NS(=O)(=O)c3cn(C)cn3)ccc2O[C@@H]1CN(C)C(=O)NC1CCCCC1,0,-1,0.7
Cc1ccccc1S(=O)(=O)N1CCCCN2[C@H](C1)[C@H](c1ccc(C#CCN(C)C)cc1)[C@@H]2CO,?,.,.
C[C@H]1CN([C@@H](C)CO)C(=O)c2cc(-c3ccc(C#N)cc3)cnc2O[C@@H]1CN(C)C(=O)CC1CC1,-4,-5,1.9
C[C@@H]1CN([C@@H](C)CO)C(=O)CCCn2cc(nn2)CO[C@@H]1CN(C)C(=O)CCC(F)(F)F,6,5,0.7
CO[C@H]1CN(C)C(=O)c2ccc(NC(=O)C3CCC3)cc2OC[C@@H](C)NC[C@H]1C,-2,-4,2.0
COc1ccc2c3c([nH]c2c1)[C@@H](CO)N(C(=O)Nc1ccc(F)cc1)CC31CCN(S(=O)(=O)c2cn(C)cn2)CC1,10,-3,13
CN1c2ccc(-c3cccc(F)c3)cc2[C@H]2[C@H](CCN2C(=O)c2ccncc2)[C@H]1CO,-3,-1,-2.3
CC(C)C(=O)Nc1ccc2c(c1)C(=O)N(C)[C@H]1CC[C@@H](CC(=O)NC3CCCC3)O[C@@H]1CO2,0,-2,2.2
O=C(C[C@H]1CC[C@@H]2[C@H](COC[C@H](O)CN2S(=O)(=O)c2ccc(Oc3ccccc3)cc2)O1)Nc1ccccc1,-9,-2,-6.4

# Brought forward from above: 2 entries, then new ones.
SMILES,DUX4 inh,DUX4 inh difference,DUX4 inh control
CC(C)C(=O)Nc1ccc2c(c1)C(=O)N(C)[C@H]1CC[C@@H](CC(=O)NC3CCCC3)O[C@@H]1CO2,0,-2,2.2
O=C(C[C@H]1CC[C@@H]2[C@H](COC[C@H](O)CN2S(=O)(=O)c2ccc(Oc3ccccc3)cc2)O1)Nc1ccccc1,-9,-2,-6.4
CO[C@@H]1CN(C)C(=O)c2cc(NC(=O)c3ccc(F)cc3)ccc2OC[C@@H](C)N(C(=O)CC2CC2)C[C@@H]1C,1,-1,1.0
COc1ccc(S(=O)(=O)N2CCCCN3[C@H](CO)[C@@H](c4ccc(C5=CCCC5)cc4)[C@H]3C2)cc1,5,-14,19
O=C(CN1CCOCC1)NCC[C@@H]1CC[C@H](NS(=O)(=O)c2ccc(Cl)cc2)[C@@H](CO)O1,3,2,0.9
CCC(=O)N1CC2(C1)CN(Cc1cccc(F)c1)[C@H](CO)c1c2c2ccc(OC)cc2n1C,-1,-2,1.4
C[C@H](NC(=O)C[C@@H]1C[C@@H]2c3cc(NC(=O)Cc4ccncc4)ccc3O[C@@H]2[C@H](CO)O1)c1ccccc1,3,-1,4.7
O=C(C[C@H]1C=C[C@@H](NC(=O)Nc2ccc(C(F)(F)F)cc2)[C@@H](CO)O1)NCc1ccccn1,-2,-3,0.9
CN1CCN(C(=O)C[C@H]2CC[C@H]3[C@@H](COc4ccc(NC(=O)c5cccs5)cc4C(=O)N3C)O2)CC1,-2,-3,0.8
C[C@H](CO)N1C[C@H](C)[C@@H](CN(C)S(=O)(=O)c2ccccc2F)Oc2ncc(C#Cc3ccncc3)cc2C1=O,4,2,1.3
O=C(Nc1ccc(F)cc1)N1CCCCN2[C@H](CO)[C@@H](c3ccc(C#CC4CC4)cc3)[C@@H]2C1,8,2,5.9
CN1C(=O)c2cc(NC(=O)C3CCOCC3)ccc2OC[C@H]2O[C@H](CC(=O)NCC3CCCCC3)CC[C@H]21,3,-2,4.6
O=C(C[C@@H]1CC[C@H]2[C@@H](COC[C@@H](O)CN2S(=O)(=O)c2ccc(F)cc2)O1)N[C@H]1CCN(Cc2ccccc2)C1,-4,-7,2.9
CN1C[C@H]2[C@@H](c3ccccc31)[C@H](CO)N2C(=O)Nc1ccc(F)cc1,1,2,-1.1
C[C@H](CO)N1C[C@H](C)[C@@H](CN(C)S(=O)(=O)CC(F)(F)F)OCc2ccccc2-c2c(n(C)c3ccccc23)C1=O,0,3,-2.8
COc1ccc(NC(=O)N(C)C[C@H]2OCCCC[C@@H](C)Oc3ccc(NC(=O)c4ccncc4)cc3C(=O)N([C@H](C)CO)C[C@@H]2C)cc1,-2,-2,-0.1
CN(C)CC(=O)N1[C@@H](CO)[C@@H](c2ccccc2)C12CN(C(=O)c1ccccc1)C2,6,4,1.5

# Single records, as listed above.
# `O=C(CN1CCOCC1)NCC[C@@H]1CC[C@H](NS(=O)(=O)c2ccc(Cl)cc2)[C@@H](CO)O1` in the list: DUX4 inh = 3; DUX4 inh difference = 2; DUX4 inh control = 0.9
# `CCC(=O)N1CC2(C1)CN(Cc1cccc(F)c1)[C@H](CO)c1c2c2ccc(OC)cc2n1C` in the list: DUX4 inh = -1; DUX4 inh difference = -2; DUX4 inh control = 1.4
# `CN1CCN(C(=O)C[C@H]2CC[C@H]3[C@@H](COc4ccc(NC(=O)c5cccs5)cc4C(=O)N3C)O2)CC1` in the list: DUX4 inh = -2; DUX4 inh difference = -3; DUX4 inh control = 0.8

# Continuation:
SMILES,DUX4 inh,DUX4 inh difference,DUX4 inh control
CO[C@@H]1CC[C@@H]2CCN(C)C(=O)C[C@H](c3ccccc3)CN(C)C(=O)c3cc(C#N)ccc3OC[C@@H]1O2,0,-2,2.1
COc1ccccc1S(=O)(=O)N[C@H]1C=C[C@H](CC(=O)N2CCOCC2)O[C@@H]1CO,-1,-2,0.6
CCCNC(=O)N1[C@H](C#N)[C@H](c2ccc(C3=CCCCC3)cc2)[C@H]1CO,-3,0,-3.0
COc1ccc2c3c([nH]c2c1)[C@@H](CO)N(C(=O)Nc1ccccc1F)CC31CCN(C(C)=O)CC1,10,5,5.2
O=C(C[C@H]1CC[C@@H]2[C@H](COC[C@H](O)CN2C(=O)c2ccccc2F)O1)NCc1ccc(Cl)cc1,1,1,-0.2
CCC(=O)N1CC(=O)N2[C@H](C1)[C@H](c1ccc(-c3ccccc3F)cc1)[C@@H]2CO,7,2,4.7
COc1ccccc1NC(=O)Nc1ccc2c(c1)C(=O)N(C)C[C@@H](OC)[C@@H](C)CN[C@@H](C)CO2,-1,-5,4.0
C[C@H](O)C#Cc1cnc2c(c1)C(=O)N([C@H](C)CO)C[C@H](C)[C@H](CN(C)C(=O)c1ccccc1F)O2,-1,-2,0.7
Cc1ccccc1S(=O)(=O)N1C[C@H](O)COC[C@H]2O[C@H](CC(=O)NCCc3ccccc3)CC[C@@H]21,8,2,5.6
CCCNC(=O)C[C@@H]1CC[C@H]2[C@@H](COc3ccc(NC(=O)Nc4ccccc4F)cc3C(=O)N2C)O1,4,0,4.2
Cc1ccc(-c2ccc([C@@H]3[C@H]4CN(C(=O)Nc5cccc(F)c5)CC(=O)N4[C@H]3CO)cc2)cc1,1,-1,1.3
O=C(C[C@H]1CC[C@@H]2[C@H](COC[C@H](O)CN2C(=O)c2ccc3c(c2)OCO3)O1)NCCN1CCCCC1,15,7,8.3
CC(=O)N1[C@@H](CO)[C@@H](c2ccccc2)[C@@H]1CNC(=O)CN1CCOCC1,1,2,-1.7
CC(C)(C)[S@](=O)N1Cc2cc(C(=O)N[C@@H]3CCN(Cc4ccccc4)C3)nc(-c3cccc(-c4cccnc4)c3)c2[C@@H]1CCO,-4,-6,1.9
O=C(C[C@@H]1CC[C@H]2[C@@H](COC[C@@H](O)CN2C(=O)Nc2ccccc2)O1)NCCc1ccncc1,11,2,8.2
COc1ccc2c3c([nH]c2c1)[C@@H](CO)N(S(=O)(=O)c1cn(C)cn1)CC31CCN(CC2CCCCC2)CC1,7,-11,18
C[C@H]1CC=CC[C@@H](c2ccccc2)NC(=O)[C@H](C)N(C)C(=O)c2ccccc2O1 (mixture of isomers),-2,-3,1.6
Cc1ccccc1-c1ccc([C@@H]2[C@@H](CO)N3C(=O)CN(C(=O)c4cccnc4)C[C@@H]23)cc1,0,1,-0.4
N#Cc1ccc(-c2ccc3c(c2)[C@@H]2[C@@H](CCN2S(=O)(=O)c2ccccc2F)[C@@H](CO)N3)cc1,10,0,9.3
COCC(=O)Nc1ccc2c(c1)C(=O)N(C)[C@@H]1CC[C@@H](CC(=O)Nc3cn(C)nc3C)O[C@H]1CO2,-7,-6,-1.0
CNC[C@@H]1OCCCC[C@@H](C)Oc2ccc(NS(=O)(=O)c3cn(C)cn3)cc2C(=O)N([C@@H](C)CO)C[C@H]1C,2,2,0.5
O=C(c1ccc2c(c1)OCO2)N1CC(=O)N2[C@H](CO)[C@H](c3ccc(C#CC4CCCC4)cc3)[C@H]2C1,?,.,.
N#Cc1ccc(-c2ccc3c(c2)[C@H]2[C@H](CCN2Cc2cncnc2)[C@H](CO)N3)cc1,?,.,.
O=C(c1ccccn1)N1C[C@@H]2[C@H](c3ccccc31)[C@@H](CO)N2C(=O)C1CCOCC1,1,1,-0.2
Cc1ccccc1-c1ccc([C@@H]2[C@H](CO)N3C(=O)CN(C(=O)c4ccncc4)C[C@@H]23)cc1,-1,-2,1.7
O=C(Cc1ccccn1)N1CC(=O)N2[C@H](CO)[C@H](c3ccc(C#CCC4CCCC4)cc3)[C@@H]2C1,-5,0,-5.1
CCNC(=O)C[C@@H]1CC[C@H]2[C@@H](COC[C@@H](O)CN2C(=O)Nc2ccc(Cl)c(Cl)c2)O1,12,8,3.9
CCC(=O)N1CCC2(CC1)CN(Cc1cc(F)ccc1F)[C@@H](CO)c1[nH]c3cc(OC)ccc3c12,?,.,.
O=C(c1cnccn1)N1CC[C@@H]2[C@H]1c1cc(-c3ccccc3)ccc1N[C@@H]2CO,24,10,14
COCC(=O)N1CC2(C1)CN(Cc1ccc3c(c1)OCO3)[C@H](CO)c1c2c2ccc(OC)cc2n1C,8,6,2.1
C[C@H]1CN([C@@H](C)CO)C(=O)c2ccccc2-c2ccccc2CO[C@H]1CN(C)Cc1ccc(Cl)c(Cl)c1,?,.,.
CC=Cc1ccc2n(c1=O)C[C@@H]1[C@@H](CO)[C@H](C(=O)NCC)[C@H]2N1Cc1nccs1 (mixture of isomers),-1,-1,-0.1
C[C@@H]1CN([C@H](C)CO)C(=O)c2cc(N(C)C)ccc2O[C@H]1CN(C)S(=O)(=O)c1ccc(F)cc1,4,4,0.5
COCC(=O)N1[C@H](CO)[C@@H](c2ccccc2)C12CN(C(=O)c1cccnc1)C2,1,2,-0.6
CCC(=O)N1[C@@H](CO)[C@H](c2ccccc2)[C@@H]1CNC(=O)CN1CCOCC1,-2,-2,0.2
COc1ccccc1NC(=O)Nc1ccc2c(c1)C(=O)N(C)C[C@H](OC)[C@@H](C)CN[C@@H](C)CO2,-4,-6,1.7
COC(=O)C[C@@H]1CC[C@H]2[C@@H](COC[C@@H](O)CN2S(=O)(=O)c2ccc(F)cc2)O1,5,-2,6.1
CO[C@H]1CC[C@H]2CCN(C)C(=O)C[C@@H](c3ccccc3)CN(C)C(=O)c3cc(C#N)ccc3OC[C@@H]1O2,2,-1,2.6
CC(C)C#Cc1ccc([C@@H]2[C@H](CO)N3C(=O)CN(C(=O)C4CCCCC4)C[C@@H]23)cc1,?,.,.
COc1ccccc1NC(=O)N1CCCCN2[C@H](C1)[C@H](c1ccc(-c3ccc(C)cc3)cc1)[C@@H]2CO,9,37,-27
CCS(=O)(=O)Nc1ccc2c(c1)C(=O)N(C)[C@@H]1CC[C@@H](CC(=O)NC3CCCCC3)O[C@@H]1CO2,0,-1,1.3
CN1C(=O)c2cc(NS(=O)(=O)c3ccc(F)cc3)ccc2OC[C@@H]2O[C@H](CC(=O)NCC(F)(F)F)CC[C@@H]21,2,2,-0.1
COc1ccc2c3c(n(C)c2c1)[C@@H](CO)N(CC1CC1)CC31CN(C(=O)c2ccc(F)cc2)C1,-26*,-26*,-0.4*
Cc1ccc(S(=O)(=O)N2CC[C@@H]3[C@H](CO)N(C)c4ccc(-c5ccc(C#N)cc5)cc4[C@@H]32)cc1,?,.,.
CC(C)CC#Cc1ccc2c(c1)O[C@@H](CN(C)C(=O)Cc1ccncc1)[C@H](C)CN([C@@H](C)CO)S2(=O)=O,-1,1,-2.3
CO[C@@H](CN(C)C(=O)c1cnccn1)[C@@H](C)CN([C@H](C)CO)S(=O)(=O)c1ccc(F)cc1,3,0,3.1
N#C[C@H]1[C@@H](c2ccccc2C2=CCCC2)[C@@H](CO)N1C(=O)NC1CCCCC1,?,.,.
CN1C(=O)c2cc(NC(=O)C3CC3)ccc2OC[C@H]2O[C@@H](CC(=O)Nc3cc(F)ccc3F)CC[C@@H]21,2,1,1.2

# High-throughput results: PubChem, Broad Institute
